VACV Venus inh – inhibitors of vaccinia virus (Venus reporter). AID 720580. Vaccinia virus Venus reporter expression, fluorescence. Potency, µM (highest dose often 36.5 µM), inactives show at the highest dose activity change, negative = inhibition, hits mostly inhibitors. actives 0.46% (n = 330,000); active means well fitted inhibition curve with a large enough effect; inconclusive means small, poorly fitted or top-dose-only effect; inactive means no such curve, though single readings can be large or run the other way; tested in A549 cells; also: nearly all actives have a fitted effect of over 30% in size; inactives centre near -10
VACV mCherry inh – inhibitors of vaccinia virus infection (mCherry reporter signal); actives 0.63% (n = 310,000); Vaccinia virus mCherry reporter infection, fluorescence; about a quarter of the inactives have no number; Potency, µM (highest dose often 36.5 µM), inactives show at the top dose activity change, negative = inhibition, actives largely listed as inhibitors; active = well fitted inhibition curve with a large enough effect; inconclusive = small, poorly fitted or top-dose-only effect; inactive = no such curve, though single readings can be large or run the other way; tested in A549 cells; also: nearly all actives have a fitted effect of over 35% in size; inactives centre near -10
Numbers without * were called inactive; i = inactive; u = inconclusive; x = no result given; & = joins results of further samples; [ ] = dose if it differs, or a comment. % is scaled to controls: 0 for no effect and ±100 for the full control effect; potency is read from the fitted curve at half-maximal effect.

Results follow in this order: VACV Venus inh, VACV mCherry inh
COc1cc(/C=N/NC(=O)CNC(=O)c2cccs2)ccc1O
→ -1%, -9%
Cc1cc2[nH]c(=O)c(=O)[nH]c2cc1S(=O)(=O)N1CCN(c2cccc(C)c2C)CC1
→ 1%&-4%, 9%&-13%
O=C(/C=C/[C@H]1O[C@@H](n2ccc(=O)[nH]c2=O)[C@H](O)[C@@H]1O)NCc1ccccn1
→ -10%, i
CSc1cccc(Nc2cc(C(=O)NCCCN(Cc3ccccc3)C(C)C)c3ccccc3n2)c1
→ -25%, u
O=C(CS(=O)CC(=O)N(CC(=O)NC1CCCC1)c1ccccc1F)Nc1ccc(F)cc1 (stereo not drawn)
→ -4%, -6%
CC(C)CCN1CCN(Cc2cccs2)CC1CCO (stereo not drawn)
→ -6%, i
CN(C)NC(=O)c1ccsc1NC(=O)c1ccc(S(=O)(=O)N(C)C)cc1
→ -18%, 0%
CCN(CC)c1ccc(NC(=O)CSc2nnc(C)c(=O)[nH]2)cc1
→ 2%, -4%
CC(=O)Nc1ccc(C(=O)OCC(=O)NC(=O)NC(C)(C)C)cc1
→ -7%, -10%
CN(C)C(=O)CSc1ccc(S(=O)(=O)N2CCCC2)cn1
→ -6%, -14%
CCOc1ncccc1C(=O)Nc1ccc(C)cn1
→ -5%, -10%
COC(=O)[C@@]1(Sc2ccc(C)cc2)CC(=O)N(C(=O)C2CC2)[C@@H]1c1ccccc1
→ -5%, 38%[activator]
CN(CC(=O)N1CCN(c2ccccn2)CC1)S(=O)(=O)c1ccccc1
→ -12%, x
COc1ccc(CCNC(=O)c2n[nH]c(=O)c3ccccc23)cc1
→ 1%, x
Cc1cccc(NC(=S)N2CCN(S(C)(=O)=O)CC2)c1
→ -6%, i
CC(=O)Oc1ccc(C(=O)OCC(=O)c2c(N)n(C)c(=O)n(C)c2=O)cc1OC(C)=O
→ -8%, -15%
O=C(NCc1cccs1)c1ccc2c(c1)ncn2C1CCCC1
→ -21%, u
C=CCn1c(SCC(=O)Nc2cccnc2Cl)nnc1-c1ccc(Cl)cc1
→ -23%, -3%
CCN(CC(=O)Nc1c(F)cccc1F)C(=O)c1ccc(=O)n(C)n1
→ -6%, -7%
CCOC(=O)c1ccc(NC(=S)N2CCC(C(N)=O)(N3CCCCC3)CC2)cc1
→ -16%, -10%
COC(=O)CNC(c1ccccc1)c1cc(C)ccc1NS(=O)(=O)c1ccc(C)cc1 (stereo not drawn)
→ -14%, -22%
Cc1cc(C(=O)C[N+]2(C)CCOCC2)c(C)n1-c1ccc(Br)cc1
→ -6%, i
Cc1cc(Nc2cccc(C(F)(F)F)c2)nc2ccc(NC(=O)c3ccc(N(C)C)cc3)cc12
→ u, u
Cc1ccc(COc2ccc(-c3nnco3)cc2)cc1
→ -4%, i
O=C(CN1C(=O)c2ccccc2C1=O)Nc1ccc(-c2nc3ccccc3o2)cc1
→ -5%, x
CC1=C/C(=N\Nc2ccccc2[N+](=O)[O-])CC(C)(C)C1
→ -5%, i
CC(C)CCN(C(=O)c1ccccn1)c1c(N)n(Cc2ccccc2)c(=O)[nH]c1=O
→ -8%, i
COc1ccc(S(=O)(=O)N2CCc3ccccc32)cc1C(=O)OCc1c(C)noc1C
→ -21%, -7%
CC(=O)Nc1ccc(-c2csc(N/N=C\c3ccncc3)n2)cc1
→ -12%, -3%
O=c1oc2ccc3ccccc3c2cc1-c1nnc(Nc2cc(C(F)(F)F)ccc2Cl)s1
→ -13%, -12%

2 consecutive records from above, quoted:
Results follow in this order: VACV Venus inh, VACV mCherry inh
CC(=O)Nc1ccc(-c2csc(N/N=C\c3ccncc3)n2)cc1
→ -12%, -3%
O=c1oc2ccc3ccccc3c2cc1-c1nnc(Nc2cc(C(F)(F)F)ccc2Cl)s1
→ -13%, -12%

(more compounds)
Results follow in this order: VACV Venus inh, VACV mCherry inh
COc1ccc(OC)c(C(=O)NC(CC(N)=O)c2ccc(N3CCC(N4CCCC4)CC3)c([N+](=O)[O-])c2)c1 (stereo not drawn)
→ -29%, i
CCCCn1c(=O)n(-c2cc(OC)ccc2OC)c(=O)c2c3c(sc21)CN(C(C)=O)CC3
→ -3%, -13%
Cc1cc(C)cc(OCC(=O)Nc2nonc2-c2ccc(Br)cc2)c1
→ -22%, -10%
COc1ccc(/C=N/NC(=O)c2ccc(C)cc2)cc1CN1CCN(c2ccc(F)cc2)CC1
→ -1%, -10%
Cc1ccc(Cl)cc1N1CCN(S(=O)(=O)c2ccc3c(c2)CCCN3C(=O)C2CCC2)CC1
→ -5%, -14%
CC(C)C[C@H]1CNC(=S)N1C[C@H]1CCCN1C[C@H](Cc1ccc(O)cc1)N1C[C@H](Cc2ccccc2)N(CC2CCCCC2)C1=S
→ -17%, 0%
c1ccc(-n2nnnc2-n2nnc3ccccc32)cc1
→ -5%, -18%
CCOc1ccccc1NC(=O)N1CCC2(CC1)OCCO2
→ -5%, i
CC(C)(C)C(=O)/C(C#N)=C/c1cccs1
→ -4%, -10%
Cc1noc(C)c1CSCC(=O)OCC(=O)N1CC(=O)Nc2ccccc21
→ -5%, -9%
Cc1cc(N2CCOCC2)nc2ccc(NC(=O)CCC(=O)N3CCN(c4cccc(C(F)(F)F)c4)CC3)cc12
→ u, u
CSc1nc(S(=O)(=O)c2ccc(C)cc2)c(Cl)s1
→ -6%, i
Cc1cc2c(=O)oc(-c3ccc(F)cc3)nc2s1
→ -12%, i
COc1ccc2c(c1)Cc1sc(NC(=O)c3cccc(F)c3)nc1-2
→ u, u
CC(=O)Nc1cc(-c2cccc(C(=O)NCCN(C)C)c2)cn2c(-c3ccc(C(C)=O)cc3)cnc12
→ -20%, -9%
O=C(CN(C(=O)c1csnn1)c1cccc(F)c1)NC1CCCC1
→ -4%, i
CC(C)CC1Nc2ncnc(N3CCN(c4ccccc4)CC3)c2N(Cc2ccccc2)C1=O (stereo not drawn)
→ u, u
C/C(=N/NC(=O)CNC(=O)c1ccncc1)c1ccc(Cl)cc1
→ -7%, i
COc1cc(/C=N/NC(=O)C(=O)NCC2CCCO2)cc(Cl)c1O (stereo not drawn)
→ -7%, -3%
COc1ccccc1CNC(=O)CN(C)Cc1ccc(SC)cc1
→ -9%, u
Cc1ccc(S(=O)(=O)N2[C@@H](c3ccc(C(C)C)cc3)C(C(=O)O)=C[C@H]2C(C)(C)C)cc1
→ u, i
CC(C)C[C@H]1COc2cc(N3CC[C@@H](O)C3)ccc2S(=O)(=O)N1
→ 6%, i
Cc1cc(N2CCN(S(=O)(=O)Cc3ccccc3)CC2)n2ncnc2n1
→ -13%, i
CCc1nnc(NC(=O)[C@@H](NC(=O)c2ccc(OC)cc2)C(C)C)s1
→ -5%, -23%
CN(C)C(=O)c1cn(N(C)c2ncc(C(F)(F)F)cc2Cl)c(=O)c2ccccc12
→ 1%, -11%[1.46 µM]
O=C(Nc1nc2c(F)cc(F)cc2s1)c1ccco1
→ -13%, i
Cc1ccc(-n2c(SCC(=O)Nc3cccc(S(=O)(=O)NC4=NCCCCC4)c3)nc3ccccc3c2=O)cc1
→ -9%, -8%
CC(=O)c1ccc(N(CC(=O)NC2CCS(=O)(=O)C2)S(=O)(=O)c2ccc(C)cc2)cc1 (stereo not drawn)
→ -12%, i
O=C(c1ccc(Cl)cc1)N1CCC(c2ccncc2)CC1
→ -11%, -6%
Cc1onc(-c2ccccc2Cl)c1C(=O)NC1CCS(=O)(=O)C1 (stereo not drawn)
→ 0%, 9%

Complete entries from above:
`COc1ccc2c(c1)Cc1sc(NC(=O)c3cccc(F)c3)nc1-2` reads VACV Venus inh = u; VACV mCherry inh = u
`CCOc1ccccc1NC(=O)N1CCC2(CC1)OCCO2` reads VACV Venus inh = -5%; VACV mCherry inh = i

Next section:
Results follow in this order: VACV Venus inh, VACV mCherry inh
CCOc1cc(CNCC(C)C)cc(Cl)c1OCc1ccccc1
→ u, u
COc1cccc(NC(=O)Cn2cc(C=O)c3ccccc32)c1
→ -13%, -11%
CCOC(=O)C1CCN(Cc2nc3ccc(Cl)cc3n2CCO)CC1
→ 0%, i
NC(=O)CSC1=Nc2ccccc2C2=NC(CC(=O)NCc3cccs3)C(=O)N12 (stereo not drawn)
→ 4%, 6%
CCCCCn1c(=S)[nH]c2cc(C(=O)N3CCCC3)ccc2c1=O
→ 11%, -2%
O=C1[C@@H](Oc2ccccc2)[C@@H](c2ccccc2)N1c1ccccc1
→ -13%, -1%
C/C(=N\NC(=O)c1cc2c(s1)CCC(C)C2)c1cccnc1 (stereo not drawn)
→ -18%, i
C=CCn1c(=O)c(C(=O)NCc2ccc3c(c2)OCO3)c(O)c2cc(OC)c(OC)cc21
→ -18%, i
O=c1cc(-c2ccsc2)oc2ccc(-c3ccc4cc[nH]c4c3)cc12
→ -23%, -16%
O=C1CC[C@H](OCc2ccccc2)CCN1[C@H](CSc1ccccc1)Cc1ccccc1
→ -18%, -16%
CNC1(C(N)=O)CCNCC1
→ -14%, i
N#CC1=C(N)SC(N)=C(C#N)C1C1CC=CCC1 (stereo not drawn)
→ -3%, 8%
O=C(CSc1ccc2nnc(-c3ccncc3)n2n1)Nc1nccs1
→ -8%, i
Cc1ccc(CN2CCNC(=O)C2CC(=O)N(C)C2CCCCC2)cc1 (stereo not drawn)
→ -3%, -28%
Cc1ccc(NC(=O)c2ncn(-c3ccccc3)n2)c(Cl)c1
→ -13%, -6%
CCn1ccnc1CN1CCN(CC(C)C)C(CCO)C1 (stereo not drawn)
→ 13%, 11%
CC(=NNC(=S)N1CCN(C2CCCCCC2)CC1)c1ccccn1
→ u, u
COC(=O)c1cc2c(-c3ccccc3)c(C)c3ccccn3c-2c1C(=O)OC
→ 19%, x
NC(=O)c1ccccc1OCC(=O)N1CCc2ccccc2C1
→ -21%, -18%
CN(C(=O)COC(=O)CNC(=O)c1ccccc1F)C1CCCCC1
→ -4%, -11%
CCc1nc2c(OCc3ccc(F)cc3)cccn2c1N(C)C(=O)c1ccc(C)cc1
→ -12%, 4%
COc1ccc(CCC(=O)OCC(=O)Nc2ccc(C)c(S(=O)(=O)N(C)C)c2)cc1
→ -10%, i
Cc1cc(NC(=O)CCC(=O)N(Cc2ccco2)C(C(=O)NC2CCCC2)c2ccccc2)no1 (stereo not drawn)
→ -2%, -5%
COC(CNC(=O)c1ccc2nc(-c3ccccc3)c(-c3ccccc3)nc2c1)OC
→ -9%, -3%
Cc1cc([N+](=O)[O-])ccc1NCc1ccccc1[N+](=O)[O-]
→ -7%, -17%
COc1ccccc1-n1nnnc1SCC(=O)Nc1cc(C)on1
→ -27%, x
Cc1ccc(SCC(=O)OC(C)C(=O)N2CCc3ccccc32)cc1 (stereo not drawn)
→ -12%, i
O=C(NCc1ccccc1Cl)C1CCN(S(=O)(=O)c2ccc(-n3cnnn3)cc2)CC1
→ -3%, 2%
CCCOc1ccc(N2C(=O)CC(N3CCN(c4ccccc4OC)CC3)C2=O)cc1 (stereo not drawn)
→ 1%, 1%
Cc1ccc(NC(=O)c2c(-c3c(F)cccc3Cl)noc2C)cc1F
→ -11%, -13%
O=c1c2sccc2n(Cc2cc(=O)n3ccccc3n2)c(=O)n1-c1ccccc1
→ -3%, i
COc1ccccc1N1C(=O)C2CCC(c3ccccc3)CC2C1=O (stereo not drawn)
→ -14%, -2%
CC[C@]12c3[nH]c4ccccc4c3CCN1C(=O)C(CC(=O)NCC13CC4CC(CC(C4)C1)C3)C[C@@H]2C(=O)N1CCN(C(=O)c2ccco2)CC1 (stereo partly drawn)
→ u, i
CCN(CC)C(=O)C1CCCN(Cc2ccccc2)C1 (stereo not drawn)
→ 5%, i
Cc1[nH]c2ccccc2c1SCc1nnc(SCc2ccccc2)n1C
→ u, -14%
CCN1c2ccccc2-c2nc(SCC(=O)Nc3cc(F)ccc3F)ncc2S1(=O)=O
→ -22%, -30%
CC(=O)c1cc2c(cc1NC(=O)c1ccco1)OCCO2
→ -18%, i
COc1ccc(S(=O)(=O)N2CCOC2CNC(=O)C(=O)NCc2ccncc2)cc1OC (stereo not drawn)
→ -21%, i
O=C(c1ccc2c(c1)OCO2)N1CCN(c2ccccc2)CC1
→ 16%, x
O=C(C1CC1)N(CCN(C(=O)C1CC1)c1ccccc1)c1ccccc1
→ -5%, -10%
CC(C)COc1ccc(C(=O)Nc2sc3c(c2C(=O)O)CC(C)(C)OC3)cc1
→ -22%, u
COCCCn1c(=N)c(C(=O)NC2CCCCC2)cc2c(=O)n3ccccc3nc21
→ -5%&8%, 3%&6%
COc1ccc2c(c1O)-c1cc(O)cc3c1[C@@H](C2)N(C)CC3
→ -11%, -9%
Cc1cccnc1NC(=O)CCCNC(=O)c1ccc(Cl)cc1
→ -11%, -20%
CCNC(=O)NC(=O)COC(=O)CNC(=O)COc1ccccc1
→ -12%, -1%
CCOc1ccc(C(C)=O)cc1COC(=O)C(C)N=C1NS(=O)(=O)c2ccccc21 (stereo not drawn)
→ -4%, -9%
CCOC(=O)c1cc(NC(=O)CSCCO)ccc1Cl
→ -4%, -9%
CC(=O)Nc1ccc(S(=O)(=O)NCC2(N3CCOCC3)CCCCC2)cc1
→ -21%, -3%
O=C(CCc1ccc(S(=O)(=O)N2CCOCC2)cc1)N1CCc2ccccc2C1
→ -12%, -18%
CCCCN=C1CC(C)(C)CC(=O)/C1=C(/O)CCC
→ -9%, i
CCn1cc2nc(SCc3cccc(C(F)(F)F)c3)n(Cc3ccc(Cl)cc3)c(=O)c2n1
→ -25%, u

Source: PubChem (National Center for Advancing Translational Sciences (NCATS))
